Screening data as filed in PubChem BioAssay.
Sfp PPTase inh: blocks B. subtilis Sfp PPTase activity. 3.5% of 310,000 active. Potency, µM, inactives show max response, negative = inhibition, most hits filed as inhibitors. AID 1490. Q9F4F7. Biochemical Sfp PPTase activity, qHTS; active means well fitted inhibition curve with a large enough effect; inconclusive means small, poorly fitted or top-dose-only effect, or another doubt; inactive means no such curve, though single readings can be large or run the other way;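 further: the enzyme is Sfp with the accession as filed and its product quenches rhodamine fluorescence; potency means the concentration at half of the fitted maximal effect; 0% = enzyme reaction without inhibitor and -100% = no enzyme wells; top concentration of the series not given in the record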
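After 15 min at room temperature with compound, 15 nM Sfp received 5 uM rhodamine-CoA plus 12.5 uM BHQ-2-ybbR (50 mM Hepes pH 7.6, 10 mM MgCl2). Rate came from the fluorescence difference over 30 min, ex 525/em 598 nm.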
gsp antagonist: antagonists of gsp mutant (McCune-Albright syndrome). gsp-mutant cells, cAMP HTRF, 30 min; control for the full effect not named in the record. Potency, µM (doses to about 76.9 µM), without a hit: at the top dose activity change, negative = inhibition, usual class: inhibitors. 0.4% of 340,000 active. AID 624288; active = falling curve of any shape with a large fitted effect; inconclusive = falling curve, mostly with a smaller effect; inactive = flat or rising curve; cell line not stated here;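 further: intracellular cAMP measured with PDE inhibitor Ro 20-1724 present during compound exposure; potency means the concentration at half of the fitted maximal effect; on the % scale 0 is the no-effect control and ±100 the full control effect; nearly all actives have a fitted effect of over 65% in size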
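Measurement of cellular cAMP by homogeneous time-resolved fluorescence following a 30 min compound exposure at 37C. The PDE inhibitor […] was present throughout; the assay buffer was DPBS with 0.05% BSA and 0.005% Tween 20.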
Menin-MLL FL inh: menin-MLL binding inhibition, fluorescein peptide; Fluorescence polarization, fluorescein-MLL peptide displacement from menin; FP activity change, % at 61.4 µM; 290,000 tested, under 10 active; inconclusive = falling polarisation curve, or a change in total fluorescence; inactive = total fluorescence flat and polarisation flat or rising; no compound was filed as active; the % refers to the polarisation; negative = inhibition;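 further: % of control where 0% means no effect; inhibitors lower the polarisation; unlabelled MLL peptide was the positive control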
D2 PAM: human D2 receptor positive allosteric modulation; P14416; DiscoveRx D2 beta-arrestin cells, luminescence, 90 min; 100% = 57 uM dopamine signal; potentiation, % (test concentration not listed); 0.23% of 360,000 active; AID 624464; active = potentiation of 50% or more; inconclusive = 30% to 50%; inactive = 30% or less;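 further: compound concentration not given in the record; tested on top of an EC20 dose of dopamine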
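PathHunter beta-arrestin assay in DiscoveRx D2 cells. Compounds were added with an EC20 of dopamine (50 nM final) for 90 min at 37 deg C. Luminescence was read 1 h after detection reagent, with 57 uM dopamine as the EC100 control.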
gsp ag: gsp mutant agonism; Potency, µM (highest dose often 76.9 µM), without a hit: at the top dose activation (cAMP increase), hits mostly activators; gsp mutant cells, cAMP HTRF, 30 min; control for the full effect not named in the record; 0.13% of 340,000 active; active = well fitted activation curve with a large enough effect; inconclusive = small, poorly fitted or top-dose-only effect, or another doubt; inactive = no such curve, though single readings can be large or run the other way; cell line not stated here;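 further: phosphodiesterase inhibitor Ro 20-1724 added with compounds to block cAMP breakdown; potency means the concentration at half of the fitted maximal effect; nearly all actives have a fitted effect of over 60% in size; about a fifth of the inactives were tested at one dose only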
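Cells stably selected in G418 were plated at 2000/well, grown 16-24 hr, then given compounds in DMSO with the PDE inhibitor […] (300 uM solution added) for 30 min at 37C; cAMP was read by HTRF.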
TRPV1 PAM: enhances activation of the human vanilloid receptor TRPV1; Q8NER1; TRPV1-expressing cells, Fluo-8 calcium influx, capsaicin EC20 potentiation; host cell line not named in the record; control for the full effect not named in the record; potentiation, % at 8.33 µM; 0.02% of 320,000 active; active means potentiation above 80%; inconclusive means 30% to 80%; inactive means below 30%; further: 0% is about no effect
Target sequence (Q8NER1 whole entry, looked up): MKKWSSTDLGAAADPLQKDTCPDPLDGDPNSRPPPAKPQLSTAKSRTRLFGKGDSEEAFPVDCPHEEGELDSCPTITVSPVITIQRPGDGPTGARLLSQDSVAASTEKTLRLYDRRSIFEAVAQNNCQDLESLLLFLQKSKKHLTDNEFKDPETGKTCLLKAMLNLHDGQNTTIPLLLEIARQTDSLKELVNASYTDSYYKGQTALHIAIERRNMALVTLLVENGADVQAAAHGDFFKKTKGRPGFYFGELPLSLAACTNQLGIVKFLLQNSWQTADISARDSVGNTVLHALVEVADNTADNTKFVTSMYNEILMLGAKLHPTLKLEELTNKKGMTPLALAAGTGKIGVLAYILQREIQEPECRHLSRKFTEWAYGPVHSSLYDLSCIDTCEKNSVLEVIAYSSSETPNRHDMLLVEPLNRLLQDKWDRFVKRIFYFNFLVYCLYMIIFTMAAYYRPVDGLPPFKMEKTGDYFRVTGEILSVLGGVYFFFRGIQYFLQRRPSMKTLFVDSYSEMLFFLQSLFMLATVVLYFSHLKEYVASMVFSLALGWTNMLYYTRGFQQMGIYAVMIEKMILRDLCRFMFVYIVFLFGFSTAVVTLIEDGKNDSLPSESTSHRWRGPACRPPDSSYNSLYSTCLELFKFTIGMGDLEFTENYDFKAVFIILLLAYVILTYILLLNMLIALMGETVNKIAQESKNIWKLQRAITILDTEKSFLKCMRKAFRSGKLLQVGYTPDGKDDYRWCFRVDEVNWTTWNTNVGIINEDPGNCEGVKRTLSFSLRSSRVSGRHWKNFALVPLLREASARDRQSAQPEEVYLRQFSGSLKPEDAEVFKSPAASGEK
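Fluo-8 calcium influx in TRPV1-expressing cells, kinetic read (ex 480/em 520 nm). Compound added and read 3 min for agonist activity, followed by capsaicin at EC20 final and 2 min further read for enhancement.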
ClpP mod: qHTS Assay for Activators of ClpP | Potency, µM (top dose mostly 57.5 µM), for the others: at the top dose activity change, negative = active | purified B. subtilis ClpP, FRET peptide cleavage, 20 min | AID 651965, 2013 | 1.9% of 340,000 active | ATP-dependent Clp protease proteolytic subunit (Bacillus subtilis (strain 168)), P80244; active = well fitted falling curve with a large enough effect; inconclusive = small, poorly fitted or top-dose-only effect; inactive = no such curve, though single readings can be large or run the other way; further: potency means the concentration at half of the fitted maximal effect; the source files actives as falling curves though it sought activators and does not explain the sign; nearly all actives have a fitted effect of over 65% in size; many hits overshoot -100%
Target sequence (P80244 whole entry, looked up): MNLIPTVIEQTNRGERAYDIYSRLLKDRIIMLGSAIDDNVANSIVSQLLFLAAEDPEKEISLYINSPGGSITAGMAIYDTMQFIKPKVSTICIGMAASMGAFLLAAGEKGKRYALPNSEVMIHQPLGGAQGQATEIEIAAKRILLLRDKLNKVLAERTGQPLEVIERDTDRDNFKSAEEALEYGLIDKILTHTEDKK
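Buffer: 100 mM Tris/HCl pH8, 100 mM KCl, 0.05% low protease BSA, 2.5% glycerol, 0.01% Tween-20. ClpP 10 microg/mL final; 20 min RT; delta FRET normalized to ADEP and DMSO controls.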
* marks the source's active call; other numbers are inactive results; ? = inconclusive; . = not tested or not shown; & = joins results of further samples; [ ] = another dose, or the depositor's remark. No enrichment for hits; any-hit rate near 5.1%.

SMILES	Sfp PPTase inh	gsp antagonist	Menin-MLL FL inh	D2 PAM	gsp ag	TRPV1 PAM	ClpP mod
CC1(C)N=C(N)N=C(N)N1c1cccc(CN)c1	15%	14%	0.2	0	?	-7	.
CCCNS(=O)(=O)c1ccc(CCC(=O)NCc2ccco2)cc1	?	7%	2.8	-7	-54%[inhibitor]	5	2.8%
O=C(CN1CCN(c2ccccn2)CC1)Nc1ccc(OCc2ccccc2)cc1	7%	-14%	14	?	-20%	-4	-4.2%
CC(=O)c1c(N2CCN(C(=O)C3CCCO3)CC2)nc(=S)n(-c2ccccc2)c1C (stereo not given)	-12%	5%	3.0	-11	25%	-1	-3.8%
CCc1ccc(/C=N/NC(=O)c2cc(-c3ccncc3)nc3ccccc23)s1	17%	7%	5.3	3	0%	4	-1.9%
COCCn1c(C)cc(C(=O)CSc2nc(C)c(C)c(C)n2)c1C	40µM*	.	?	8	-19%[15.4 µM]	-6	.
Cc1cccc(Nc2nc3c(S(=O)(=O)c4ccccc4)nnn3c3ccccc23)c1	11%	11%	5.8	-13	5%	4	-5.3%
CCCCOC(=O)Nc1nnc(CC(=O)NCc2ccccc2)s1	22%	-3%	2.3	-2	-62%	1	.
O=C(CN(C(=O)c1ccc2c(c1)OCCO2)c1ccccc1)NCC1CCCO1 (stereo not given)	-3%	-6%	-1.0	-25	2%	0	6.9%
COc1ccccc1Oc1coc2cc(OCC(N)=O)ccc2c1=O	15%	4%	-15	3	-18%	-16	-1.9%
CCn1cc(/C=N\NC(=O)c2ccccc2Cl)cn1	6%	0%	0.1	0	19%[15.4 µM]	-2	-1.3%
COc1ccccc1C(=O)NCCC(=O)N1CCN(c2ccccc2O)CC1	.	0%	.	11	-103%[inhibitor]	-8	-3.6%
COc1ccc(C(=O)N=C2SC3CS(=O)(=O)CC3N2Cc2ccccc2)cc1OC (stereo not given)	-5%	-8%	.	-5	?	5	-16%
CC1CCCN(S(=O)(=O)c2cccc(C(=O)OCC(=O)N(C)Cc3c(F)cccc3Cl)c2)C1 (stereo not given)	.	-14%	.	14	?	.	-0.7%
COc1ccc(NCC(=O)N/N=C2\CCc3ccccc32)cc1	11%	-10%	0.6	-4	16%	15	.
CCCC(=O)OCC(=O)c1[nH]c(C)c(C(C)=O)c1C	15%	9%	-0.2	-4	-9%[15.4 µM]	29	-0.6%
COc1ccc(-c2ccnc(SCC(=O)N3CCOCC3)n2)cc1	26%	-13%	1.2	-20	11%	4	16µM*
O=C(NCCc1c[nH]c2ccccc12)c1cnccn1	-10%	5%	-1.0	-3	?	8	.
Cc1nc(CCNC(=O)c2ccccc2)cs1	11%	1%	2.0	-6	8%	-11	-1.0%
Cc1c(Cl)c([N+](=O)[O-])nn1CC(=O)NCc1ccco1	14%	-4%	3.3	-11	-5%	4	-0.1%
O=[N+]([O-])c1cccc(-c2c(-c3ccccc3)ncc3cc(F)ccc23)c1	.	-9%	.	1	?	-5	-6.2%
COc1ccc2oc(C(=O)Nc3ccc(S(=O)(=O)N(C)C4CCN(C)CC4)cc3)c(C)c2c1	-8%	-2%	.	-42	12%	2	-26%
c1ccc(C(c2ccccn2)c2ccccn2)cc1	15%	8%	0.5	-2	8%	-4	0.6%
COc1cccc(CNC(=O)C(CC(C)C)NC(=O)c2ccccc2C)c1 (stereo not given)	-6%	2%	-3.2	-5	10%[15.4 µM]	5	0.1%
COc1ccccc1OCC(=O)Nc1ccc2c(c1)C(=O)N(CC1CCCO1)C2=O (stereo not given)	23%	-4%	0.0	-4	-3%[15.4 µM]	?	-2.6%
SMILES	Sfp PPTase inh	gsp antagonist	Menin-MLL FL inh	D2 PAM	gsp ag	TRPV1 PAM	ClpP mod
Cn1c(-c2sc3ccccc3c2Cl)n[nH]c1=S	-18%	-19%	1.5	0	-5%	7	-0.2%
CC1(c2ccccc2)NC(=O)N(N)C1=O (stereo not given)	22%	13%	-1.7	-2	-12%[15.4 µM]	4	.
COc1cccc(OC)c1C(=O)Nc1ccc2c(c1)OCCO2	7%	6%	-3.1	4	-9%	3	1.5%
O=C(CSc1nnc(-c2cccs2)o1)Nc1cccc(S(=O)(=O)N2CCCCC2)c1	-12%	12%	0.6	-16	-71%[inhibitor]	15	2.7%
CCN1CCN(C(=S)Nc2ccc([N+](=O)[O-])cc2)CC1	12%	8%	0.3	-12	?	11	0.7%
CCC1(C)SC(N)=NN1C(C)=O (stereo not given)	8%	.	-2.0	8	11%[15.4 µM]	1	.
COc1ccc(NC(=O)c2ccc(-c3nn(C)c(=O)c4ccccc34)cc2)cc1C(N)=O	18%	?	-1.7	-8	17%	-20	7.6%
Cc1ccc(S(=O)(=O)N2CCCC2)cc1C(=O)O	3%	12%	1.8	1	-59%[inhibitor]	2	0.9%
Cn1nnc2cc(C(=O)N3CCC(c4ccccc4)C3)ccc21 (stereo not given)	10%	8%	2.2	-20	4%	-27	-0.1%
Nc1nnnn1/N=C/c1ccccn1	-15%	13%	4.9	-5	26%	0	-0.7%
COc1ccc(OCC(=O)NC(=S)Nc2ccccc2F)cc1	-14%	-12%	1.5	-4	0%	7	-1.6%
COc1ccc(Nc2nc(NCc3ccco3)nc(N/N=C/c3ccccc3)n2)cc1	-3%	-10%	5.6	-7	-34%[inhibitor]	-17	-2.8%
COc1cc(CNCCNC(=O)c2nonc2N)ccc1OCc1ccc(Cl)nc1	8%	-2%	-0.4	-3	4%	5	-0.1%
O=C(COc1ccc(F)cc1F)N1CCCCCCC1	-2%	6%	-6.2	1	1%[15.4 µM]	-9	-0.5%
O=C(NCCc1c[nH]c2ccc(Cl)cc12)c1ccc([N+](=O)[O-])cc1	0%	3%	-5.2	13	-3%[15.4 µM]	26	.
COC(=O)c1sccc1NC(=O)c1ccc(Br)o1	6%	?	-2.6	-9	?	-14	8.7%
COc1ccc(-c2noc(Cc3cccs3)n2)cc1	2%	1%	1.9	-19	19%	-19	0.8%
Cc1ccc(-n2nc3c(=O)n(CCCC(=O)NCC(C)c4ccccc4)nc(C)c3c2C)cc1 (stereo not given)	1%	-29%	.	-20	18%	25	0.5%
O=c1[nH]c(Cc2ccccc2Cl)nc2ccccc12	2%	11%	-0.4	-5	18%	?	.
CCN1CCC(C(=O)NC2CCCC2)(N(Cc2cccs2)C(=O)Cn2nnc3ccccc32)CC1	11%	.	3.7	.	.	-4	.
CN(Cc1ccccc1)C(=O)c1ccc(NC(=O)Cc2ccc([N+](=O)[O-])cc2)cc1	.	-6%	.	-6	0%	.	0.8%
COC(=O)c1cccc(N(C(=O)c2ccco2)C(C(=O)NC2CCCC2)c2ccc(N3CCOCC3)cc2)c1 (stereo not given)	15%	-1%	0.7	2	3%[15.4 µM]	5	.
O=C(CNC(=O)c1ccc(Br)o1)NC12CC3CC(CC(C3)C1)C2	4%	2%	.	-8	21%	-10	-3.1%
CC(C)CC(=O)NC(c1ccccc1Cl)c1c(O)ccc2ccccc12 (stereo not given)	8%	?	7.4	-9	29%	-3	?
COC(=O)C1=C(N)Oc2cc(C)n(CCCn3ccnc3)c(=O)c2C1c1ccc(Cl)cc1 (stereo not given)	11%	-13%	0.0	15	-28%	-8	-2.2%
SMILES	Sfp PPTase inh	gsp antagonist	Menin-MLL FL inh	D2 PAM	gsp ag	TRPV1 PAM	ClpP mod
N#CC1=C(N)SC(N)=C(C#N)C1c1cccc(Oc2ccccc2)c1	28µM*	28µM*	?	-1	25%	11	-16%&-3.3%
N#CC1=C(N)C(C#N)(C#N)C(c2cccnc2)C2COCC=C12 (stereo not given)	-12%	-4%	?	-16	-43%[inhibitor]	-4	9.6%
Cc1cc(C)c(NC(=O)CN(C)CC(=O)Nc2cccc(S(=O)(=O)N(C)c3ccccc3)c2)c(C)c1	.	?	.	9	3%	.	-4.7%
CCc1ccc2[nH]c(C)c(CN3CCCCCC3)c(=O)c2c1	-3%	4%	-2.0	-16	-42%[inhibitor]	5	-29%
O=C(c1cccnc1)N1CCCC(Nc2ccc(F)cc2)C1 (stereo not given)	-2%	4%	-0.6	-11	-5%	-7	1.8%
Cc1c(C(=O)Oc2ccc(-c3cnc4ccccc4n3)cc2)cccc1[N+](=O)[O-]	50µM*	4%	-3.4	-16	18%	-2	-4.6%
CC1=NNC(=O)C1CCC(=O)N/N=C/C(Br)=C/c1ccccc1 (stereo not given)	-13%	7%	1.9	0	4%	5	-1.6%
CC(=O)c1c(C)nc(-c2ccc(Cl)cc2)nc1NC(=O)C(C)C	8%	4%	3.8	2	-49%[inhibitor]	1	-6.0%
COc1ccc(/C=C/C(=O)Nc2cccc(S(=O)(=O)N3CCCC3)c2)cc1OC	2%	-13%	5.3	0	?	-12	.
Cc1cc(C(=O)CCC(=O)NCC(=O)Nc2c(C)cccc2C)c(C)s1	.	-7%	.	-5	-42%[inhibitor]	.	7.8%

Complete entries as entered above. Order of screens: Sfp PPTase inh | gsp antagonist | Menin-MLL FL inh | D2 PAM | gsp ag | TRPV1 PAM | ClpP mod
CC1=NNC(=O)C1CCC(=O)N/N=C/C(Br)=C/c1ccccc1 (stereo not given) across the screens: -13% | 7% | 1.9 | 0 | 4% | 5 | -1.6%
Cc1c(C(=O)Oc2ccc(-c3cnc4ccccc4n3)cc2)cccc1[N+](=O)[O-] across the screens: 50µM* | 4% | -3.4 | -16 | 18% | -2 | -4.6%
CCc1ccc2[nH]c(C)c(CN3CCCCCC3)c(=O)c2c1 across the screens: -3% | 4% | -2.0 | -16 | -42%[inhibitor] | 5 | -29%

In the list so far, 5 contain fluorine.
SMILES	Sfp PPTase inh	gsp antagonist	Menin-MLL FL inh	D2 PAM	gsp ag	TRPV1 PAM	ClpP mod
CC1CCCN(S(=O)(=O)c2cccc(C(=O)OCC(=O)N(C)Cc3c(F)cccc3Cl)c2)C1 (stereo not given)	.	-14%	.	14	?	.	-0.7%
O=[N+]([O-])c1cccc(-c2c(-c3ccccc3)ncc3cc(F)ccc23)c1	.	-9%	.	1	?	-5	-6.2%
COc1ccc(OCC(=O)NC(=S)Nc2ccccc2F)cc1	-14%	-12%	1.5	-4	0%	7	-1.6%
O=C(COc1ccc(F)cc1F)N1CCCCCCC1	-2%	6%	-6.2	1	1%[15.4 µM]	-9	-0.5%
O=C(c1cccnc1)N1CCCC(Nc2ccc(F)cc2)C1 (stereo not given)	-2%	4%	-0.6	-11	-5%	-7	1.8%
